# Tg IFNy HTS = T. gondii growth inhibition with IFN-gamma, primary screen, cell-based; hit rate 3.8% among 69,000; AID 1259416, 2018; Toxoplasma gondii growth in IFN-gamma-treated host cells; stronger effect = lower value; reference of the scale not given here; activity change, negative = inhibition, %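 (about 20 µM by stock and volumes)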;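 active = below -70%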;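 note: host cells are HeLa cells infected with Toxoplasma gondii; parasite growth read as luciferase light; one replicate is shown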
# Numbers without * were called inactive; & = joins results of further samples. The list is partial; the hit share may differ from the screen's.
# The first 15 records (preview)
SMILES,Tg IFNy HTS
CCc1nc(-c2c(-c3ccccc3)ncn2CCc2c(C)n[nH]c2C)c(C)[nH]1,-3
Cc1ccc(Nc2nc(-c3nnc(-c4cccc(C)c4)o3)nc3ccccc23)cc1,96
O=C1CCCN1Cc1nnc2n1CCCN(c1ncc(F)cn1)C2,-2
CO[C@@H]1CN(C)C(=O)c2cc(NC(=O)NC3CCCCC3)ccc2OC[C@H](C)N(CC2CCOCC2)C[C@@H]1C,195
FC(F)(F)c1cc(-c2nnc(N3CCCC3)o2)cc(C(F)(F)F)c1,40
COC(=O)C[C@H]1C(C)(C)C(=O)[C@@H]2CC3C4=CC(=O)O[C@@H](c5ccoc5)[C@]4(C)CCC3[C@@]1(C)C2=O (stereo partly drawn),-1
O=C(C[C@H]1CC[C@H]2[C@@H](COC[C@@H](O)CN2Cc2ccc(Oc3ccccc3)cc2)O1)N1CCN(c2ccccc2)CC1,-59
CC(C)(C)C1CCc2nc(NC(=O)CCc3nc(-c4ccccn4)no3)sc2C1 (stereo not drawn),-41
Cc1ccc(S(=O)(=O)Nc2cncc(C(=O)Nc3ccc(Cl)cc3C)c2)c(C)c1,-13
O=C(Cn1c(=O)cc(C(=O)N2CCOCC2)c2ccccc21)Nc1ccc(F)cc1,7
N#Cc1c(NC(=O)C2CC(=O)OC23CCCCC3)sc2c1CCCCC2 (stereo not drawn),-91*
Cc1ccc(NC(=O)c2nccnc2C(=O)O)cc1,14
CO[C@H]1CN(C)C(=O)c2ccc(NC(=O)C3CCC3)cc2OC[C@@H](C)N(Cc2ccccn2)C[C@@H]1C,74
COc1ccc(-c2nnc(-c3nc(NCc4ccc(SC)cc4)c4ccccc4n3)o2)cc1,158
Fc1ccc(CSc2nc(N3CCOCC3)nc(N3CCOCC3)n2)cc1,-57

# Main list, from the first entry:
SMILES,Tg IFNy HTS
CCc1nc(-c2c(-c3ccccc3)ncn2CCc2c(C)n[nH]c2C)c(C)[nH]1,-3
Cc1ccc(Nc2nc(-c3nnc(-c4cccc(C)c4)o3)nc3ccccc23)cc1,96
O=C1CCCN1Cc1nnc2n1CCCN(c1ncc(F)cn1)C2,-2
CO[C@@H]1CN(C)C(=O)c2cc(NC(=O)NC3CCCCC3)ccc2OC[C@H](C)N(CC2CCOCC2)C[C@@H]1C,195
FC(F)(F)c1cc(-c2nnc(N3CCCC3)o2)cc(C(F)(F)F)c1,40
COC(=O)C[C@H]1C(C)(C)C(=O)[C@@H]2CC3C4=CC(=O)O[C@@H](c5ccoc5)[C@]4(C)CCC3[C@@]1(C)C2=O (stereo partly drawn),-1
O=C(C[C@H]1CC[C@H]2[C@@H](COC[C@@H](O)CN2Cc2ccc(Oc3ccccc3)cc2)O1)N1CCN(c2ccccc2)CC1,-59
CC(C)(C)C1CCc2nc(NC(=O)CCc3nc(-c4ccccn4)no3)sc2C1 (stereo not drawn),-41
Cc1ccc(S(=O)(=O)Nc2cncc(C(=O)Nc3ccc(Cl)cc3C)c2)c(C)c1,-13
O=C(Cn1c(=O)cc(C(=O)N2CCOCC2)c2ccccc21)Nc1ccc(F)cc1,7
N#Cc1c(NC(=O)C2CC(=O)OC23CCCCC3)sc2c1CCCCC2 (stereo not drawn),-91*
Cc1ccc(NC(=O)c2nccnc2C(=O)O)cc1,14
CO[C@H]1CN(C)C(=O)c2ccc(NC(=O)C3CCC3)cc2OC[C@@H](C)N(Cc2ccccn2)C[C@@H]1C,74
COc1ccc(-c2nnc(-c3nc(NCc4ccc(SC)cc4)c4ccccc4n3)o2)cc1,158
Fc1ccc(CSc2nc(N3CCOCC3)nc(N3CCOCC3)n2)cc1,-57
COCCn1c(SCCOc2ccccc2)nc2ccccc2c1=O,27
C=CC(=O)Nc1cccc(Nc2nc(Nc3ccc(NC4CN(CCF)C4)cc3OC)ncc2C(F)(F)F)c1,12
COc1c(O)cc2oc3cc(O)c(CC=C(C)C)c(O)c3c(=O)c2c1CC=C(C)C,-71*
Cc1oc(-c2ccc(NC(=O)c3cc(F)cc(F)c3)cc2)nc1Cn1cccn1,20
C[C@H]1CN([C@@H](C)CO)C(=O)c2ccccc2-c2ccccc2CO[C@@H]1CN(C)C(=O)NC1CCCCC1,-44
Cc1cnccc1CN(C)C(=O)[C@@H](N)Cc1c[nH]c2ccccc12,-1
Cc1nc(OCC(=O)Nc2ccc(F)cc2F)c2ccccc2n1,-19
CCN=C1SC(CC(=O)NC(C)c2ccccc2)C(=O)N1CC (stereo not drawn),-8
O=C1c2ccccc2C(=O)N1CN1CCC(O)(c2ccc(Cl)cc2)CC1,25
CN1CCN(S(=O)(=O)c2cc(Br)cc(C(=O)O)c2)CC1,5
O=C(Cn1c(=O)ccc2cc(S(=O)(=O)N3CCCC3)ccc21)N1CCN(C(=O)c2ccco2)CC1,68
CCS(=O)(=O)N1CC2(CN(CC3CCOCC3)[C@@H](CO)c3c2c2ccc(OC)cc2n3C)C1,4
Cc1noc(C)c1NC(=O)N(C)C[C@@H]1Oc2ccc(NC(=O)Cc3cn(C)c4ccccc34)cc2CC(=O)N([C@@H](C)CO)C[C@H]1C,10
CO[C@H]1CN(C)C(=O)c2cc(NC(=O)NC3CCCCC3)ccc2OC[C@@H](C)N(CC2CCOCC2)C[C@@H]1C,53
O=C(Nc1ccccc1)c1cccc2ccccc12,36
CCOc1ccc(NC(=O)N[C@@H](CCSC)C(=O)OC)cc1,-13
CN(C)[C@@H]1CCN(c2ncccn2)[C@H]1Cc1cnn(C)c1,3
Cc1cccc(N(C)CCC(=O)Nc2ccc(N3CCCS3(=O)=O)cc2)c1,-3
C/C=C/c1ccc([C@@H]2[C@@H](CO)N[C@@H]2CN(CC)C(=O)CN2CCOCC2)cc1,-29
CN(C)CCSC(=S)NC1CCCCCCC1,42
COc1ccc(S(=O)(=O)N(C)C[C@H]2Oc3ccc(NC(=O)Nc4ccc(C(F)(F)F)cc4)cc3C(=O)N([C@@H](C)CO)C[C@H]2C)cc1,-57
CCNC(=O)C1OC(n2cnc3c(N)nc(NCCc4ccc(CCC(=O)O)cc4)nc32)C(O)C1O (stereo not drawn),17
O=C(NCCC1CCN(C2CCCC2)CC1)C1CCOC1 (stereo not drawn),1
Cc1cc(N2CCCN(Cc3cccc(OCC(N)=O)c3)CC2)ccn1,-42
O=C(C[C@@H]1C=C[C@H](NC(=O)Cc2cccnc2)[C@H](CO)O1)NCc1ccc2c(c1)OCO2,33
CSc1n[nH]c(-c2ccc(Cl)cc2)c1SC(=O)N(C)C,-70
Cc1oc(-c2ccccc2)nc1CN1C(=O)C(O)(c2ccccc2)c2ccccc21 (stereo not drawn),-36
COc1ccccc1-c1ccc([C@@H]2[C@@H](C#N)N(C(=O)NC3CCCCC3)[C@@H]2CO)cc1,-15
Cc1ccnc(Nc2nc(C)c(C(=O)N3CCC(C(N)=O)(N4CCCCC4)CC3)s2)c1,7
O=C(c1ccncc1)N1C[C@H]2[C@@H](c3ccccc31)[C@H](CO)N2Cc1ccccc1F,4
N#CC[C@H](C1CCCC1)n1cc(-c2ncnc3[nH]ccc23)cn1,-18&-33
CC(C)OC(=O)CC12CN3CN(C1)CC(CC(=O)OC(C)C)(C3)C2=O,2
CC(C(=O)N1CCCC1c1nc2ccccc2[nH]1)n1ncc2ccccc2c1=O (stereo not drawn),11
O=C(CN1C(=O)COc2ccccc21)N(Cc1ccccc1)Cc1ccccn1,36
Cc1nn(Cc2n[nH]c(=O)n2[C@H](C)c2ccc(F)cc2)c(C)c1C,-4
Cc1[nH]cnc1-c1nccn1CCCN(C)C,-3
Cc1cc(CN(C)c2ccc(C(=O)N3CCC(Cn4cccn4)CC3)cn2)n[nH]1,-1
COc1cccc(NC(=O)N2C[C@@H](O)COC[C@H]3O[C@@H](CC(=O)N(C)C)CC[C@@H]32)c1,8
Cc1ccc(F)c(NC(=O)c2c(O)c3cccnc3n(-c3cccc(F)c3)c2=O)c1,-37
O=C(CCC1N=C2c3ccccc3N=C(SCc3cc(=O)n4cc(Cl)ccc4n3)N2C1=O)NCc1cccs1 (stereo not drawn),0
CC(C)C#Cc1ccc([C@@H]2[C@@H](CO)N3C(=O)CN(S(=O)(=O)c4ccccc4)C[C@H]23)cc1,-61
CC(C)(C)c1ccc(CSC2=Nc3ccccc3C3=NC(CC(=O)NCc4ccco4)C(=O)N23)cc1 (stereo not drawn),-34
Cc1ccc(S(=O)(=O)N(C)C[C@H]2Oc3cc(C#CC4CCCC4)ccc3S(=O)(=O)N([C@H](C)CO)C[C@H]2C)cc1,-64
O=C1c2nccnc2C(=O)N1c1cc(Cl)c(-n2cccc2)cc1Cl,-12
Cc1nc2ccc(NC(=O)Nc3ccnc4cccnc34)cc2o1,-22&-28

# More structures:
SMILES,Tg IFNy HTS
Cn1nc(CN2CCOCC2)c2c1CN(Cc1ccoc1)C2,214
O=C(CN1C(=O)CCc2cc(S(=O)(=O)N3CCOCC3)ccc21)N1CCN(c2ccccc2)CC1,16
Cc1ccc(Cl)cc1NC(=O)C(=O)NCCc1csc(-c2cccc(F)c2)n1,-64
CC1=C(C(=O)NCc2ccc(C)cc2)C2(CCN(S(=O)(=O)c3cccs3)CC2)OC1=O,12
CC(C)N1CCC2(CC(C(=O)NCc3ccc(F)cc3)=NO2)C1 (stereo not drawn),179
CC(C)(C)NC(=O)N[C@H](C(=O)N1C[C@H]2[C@@H]([C@H]1C(=O)NC(CC1CCC1)C(=O)C(N)=O)C2(C)C)C(C)(C)C (stereo partly drawn),5
C=CCNc1c(C(=O)OC)c(=O)[nH]c2ccc(F)cc12,32
CC(C)c1cn(CC[C@@H]2CC[C@H](NS(=O)(=O)c3ccc(F)cc3)[C@H](CO)O2)nn1,21
CCn1c(SCc2cccnc2)nnc1C1CCCN(C(=O)C2CCC(OC)CC2)C1 (stereo not drawn),36
CCOC(=O)c1cc2c(C)nccn2c1,13
O[C@@H]1C[C@H]2CN(c3ncccc3C(F)(F)F)C[C@H]2C[C@@H]1O,8
CN(C)CC(=O)N1CC2(C1)[C@H](c1ccccc1)[C@H](CO)N2C(=O)C1CC1,31
O=C1CCCc2cnnn2COCCN1,30
Cc1cc2c(cc1O)NC(=O)CC2c1nccs1 (stereo not drawn),-29
Cc1cccc(-c2ccc(NC(=O)C3CCN(C(=O)[C@@H]4C[C@H]4c4ccccc4)CC3)cc2)c1,96
Cc1ccc2[nH]c3c(=O)n(CC(=O)NCc4ccccn4)cnc3c2c1,16
C[C@H](CO)N1C[C@H](C)[C@@H](CN(C)Cc2ccc(Cl)c(Cl)c2)Oc2ccc(NC(=O)C3CCCCC3)cc2CC1=O,-66
CC(C)NC(=O)c1ccc(COc2cccc3ccccc23)o1,2
O=C(Cc1ccccc1[N+](=O)[O-])NCc1ccncc1,32
O=C(NCCc1n[nH]c2c1CCCC2)C1CCN(Cc2ccco2)CC1,-2
Cc1nc(CN2CCC3(CC2)C(c2ccccc2)CC(=O)N3C)cs1 (stereo not drawn),-39
CCn1c(SCc2nc(-c3cccc(Cl)c3)oc2C)nc2c(=O)[nH]cnc21,165
O=C1CCc2cc(NC(=O)c3cccnc3)ccc2N1,6
CC(C)C(=O)c1ccc2onc(-c3coc(C4CC4)n3)c2c1,8
COc1cc(C(=O)NCC(c2ccc(C)cc2)N2CCN(C)CC2)nc(OC)n1 (stereo not drawn),-51
CCCCS(=O)(=O)NC1=NCN(C2CCN(Cc3ccccc3)CC2)CN1,-22
CCOCC1CN(C(=O)c2ccnnc2)Cc2cnn(CC)c21 (stereo not drawn),6
Cc1oc(C2CCN(C(=O)c3ccc(OC(F)(F)F)cc3)CC2)nc1C(=O)N(C)C,34
CCOC1C2CCC1N(C(=O)c1cn(C)c3ccccc13)CCO2 (stereo not drawn),-5
Cn1ccc(C(=O)N2CCCC(CCc3ccc(F)cc3)C2)cc1=O (stereo not drawn),4
CCN1CCOCC2(CCCN(C(=O)Cc3ccsc3)C2)C1 (stereo not drawn),-80*
COC(=O)c1oc2c(c1C)C(=O)CC(c1ccc(OC)c(OC)c1)C2 (stereo not drawn),47
COc1ccc(-c2ccn[nH]2)cc1C(F)(F)F,0
S=C(Nc1ccc(-c2csnn2)cc1)Nc1ccccc1Cl,133
Cc1noc(C)c1S(=O)(=O)N1CCN(C(=O)C2COc3ccccc3O2)CC1 (stereo not drawn),-19
CN(C)CCNC1CS(=O)(=O)CC1O (stereo not drawn),159
CCc1c(C)[nH]c2c1C(=O)C(CN1CCOCC1)CC2 (stereo not drawn),14
Clc1ccccc1-c1cc(C2CCN(Cc3cccnc3)CC2)[nH]n1,10
COc1ccc(-c2nc(CN3C(=O)C(O)(c4ccccc4)c4ccccc43)c(C)o2)cc1 (stereo not drawn),-78*
COC(=O)[C@@H]1C[C@H](NC(=O)c2cnc3cccc(C)n3c2=O)CN1C,6
Cc1nc(-c2ccc(Cl)cc2)sc1CCNC(=O)C(=O)Nc1ccccc1C#N,129
CCc1nc2ccccc2n1C(C)C(=O)Nc1ccc(C)c(S(=O)(=O)N(C)C)c1 (stereo not drawn),19
CCC(=O)N1CC(=O)N2[C@H](CO)[C@H](c3ccc(C#CCC(C)C)cc3)[C@H]2C1,-51
O=C1C[C@H]2CC[C@@H](CN1)N2C(=O)c1ccc2ncsc2c1,-18
O=C(N[C@H]1COC[C@@H]1N1CCCCC1)c1cnn2c1CCCC2,-61
Cc1cc(CC(C)NC(=O)c2cc(Cn3ccc4ccccc43)[nH]n2)n[nH]1 (stereo not drawn),6
COc1ccc(-n2ccnc2CN2CCC(N)(C(=O)O)C2)cc1 (stereo not drawn),-2
O=C(O)c1ccccc1C(=O)Nc1cc(-c2ccccc2)[nH]n1,24
Cc1ccc(NS(=O)(=O)N(C)C)cc1C,-7
Cn1cccc1C(=O)NCc1cnc2n1CCN(Cc1ccc(F)cc1)C2,-6
CN(C)C(=O)c1cccc(-c2ccc(C3[C@H]4CNC[C@@H]3N4C(=O)Nc3cccc(Cl)c3)cc2)c1 (stereo partly drawn),15&8
Cn1c(CCC(=O)Nc2cnc3n2CCCC3)nc2cccnc21,-3
COc1cc(C(=O)N2CCC(c3nc(C)n4ccsc34)CC2)cc(OC)c1OC,10
Cc1nc(-c2ccc(NC(=O)c3ccc(C(F)(F)F)nc3C)cc2)cs1,-60
c1ccc(Cc2nnc(Oc3ccccc3)c3ccccc23)cc1,-11
O=C(c1ccco1)N1CC2(CCNCC2)c2cc(F)ccc21,-22
Cc1cc(C)n(Cc2nc(-c3ccc(NC(=O)c4cccc(Cl)c4)cc3)oc2C)n1,-50
CCN(C(=O)Cn1c(CC(C)C)nc2ccccc21)C1CCN(C)CC1,11

# Assay outcomes (PubChem BioAssay)
